MT1-MMP act inh – blockers of MT1-MMP proenzyme processing, primary screen, HT1080 RFP-PRO-GFP cells, GFP/RFP fluorescence | Matrix metalloproteinase-14 (Homo sapiens), P50281 | GFP/RFP ratio change, % at 20 µM | GFP/RFP ratio fluorescence, overnight; percent of plate control window, DMSO zero | AID 651647, 2012 | hit rate 0.061% among 360,000;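 active = GFP/RFP ratio change of at least 30% with cell ATP level not reduced by more than half and red fluorescence within 50% of control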; also: strong numbers were not always called active
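Assay system – RFP-PRO-GFP reporter HT1080 cells · Compound dosing – single dose of 20 µM compound, 1% DMSO final · Incubation – overnight compound exposure at 37 °C · Measure – GFP/RFP fluorescence ratio · Benchmarks – DMSO wells and RFP-L50D-GFP cells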
Env fusion inh – inhibitors of HIV-1 Env-driven cell-cell fusion, primary screen, HeLa-JRFL effector, CEM21 target cells, luciferase; hit rate 1.1% among 360,000; inhibition, % at 12.3 µM;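 active = mean replicate inhibition score of at least 50 and every replicate individually at or above 50; inconclusive = only one of the two criteria met; inactive = mean below 50 and not all replicates reaching 50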;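 also: 0% = plate neutral controls and 100% = maraviroc near 300 nM; one replicate is shown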
MT1-MMP act inh RFP – further read-out of MT1-MMP act inh, marked with its call; RFP signal change, %; measured here: RFP expression control read;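 0 = vehicle wells; hits needed this value within 50% of zero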
Active calls of the source: *; ? = inconclusive. Only part of the results is shown; count on the stated rates, not on these rows.

SMILES	MT1-MMP act inh	MT1-MMP act inh RFP	Env fusion inh
OC[C@@H]1CN(Cc2cccnc2)C[C@H](n2cnc3c(N4CCN(c5ccccc5)CC4)ncnc32)O1	2	-2	1
CCCCCC(=O)N1C[C@@H](O)[C@H](n2cc(COC(=O)c3ccccc3)nn2)C[C@@H]1c1ccc(OC)cc1	-2	-2	7
CC(C)NC(=O)C1C(c2ccc(C(F)(F)F)cc2)=Nc2ccccc2N1C(=O)c1cccc2ccccc12 (stereo unspecified)	-9	-11	-33
CCC(C(=O)NC(C)(C)C)n1c(-c2ccccc2)nc2ccccc21 (stereo unspecified)	-2	2	-10
O=c1[nH]c(=S)[nH]c2c1[C@H](CCc1cccc(Cl)c1)O[C@H](C1CCCC1)C2	-11	-11	-3
c1ccc(CCn2cccc2)nc1	1	1	59*
COC(=O)C[C@H]1CC[C@@H](NC(=O)Nc2c(C)noc2C)[C@@H](CO)O1	3	6	2
CCCCn1nnnc1C(c1cc2ccccc2o1)N1CCCC1 (stereo unspecified)	2	1	0
CC(C)n1c(=O)c2ccccc2n1CC(=O)N1CCOCC1	4	7	-3
O=C(NCc1ccccc1)C(c1ccco1)N1CCN(c2ccccc2F)CC1 (stereo unspecified)	0	2	-4
Cc1ccc(NC(=O)CN(C)C(=O)C2CSC3(C)CCC(=O)N23)cc1 (stereo unspecified)	-4	6	-3
CCNc1cc2c(cc1O)CCC1C2CCC2(C)C(O)CCC12 (stereo unspecified)	-3	-5	-29
COC(=O)C[C@@H]1C=C[C@H](NS(=O)(=O)c2cccc(F)c2)[C@@H](CO)O1	2	5	7
CN1C(=O)C(c2cn(C)c3ccccc23)(c2cn(C)c3ccccc23)c2cc(F)ccc21	0	-2	13
CCc1c(-c2cccc(Cl)c2)ncn1Cc1cccc(-c2ccccc2)c1	7	-9	9
CC1(C(=O)NCc2ccccc2)CN(S(C)(=O)=O)CC(=O)N1Cc1cccc(F)c1 (stereo unspecified)	2	9	15
CCCCNC(=O)c1nc(-c2ccc(C(F)(F)F)cc2)oc1-c1ccccc1	0	1	-13
O=C1NC[C@@H](CCCCN2C[C@H](Cc3ccc(O)cc3)N(Cc3ccccc3)C(=O)C2=O)N(CC2CCCCC2)C1=O	3	5	-82
CCOC(=O)[C@]12CCC=C1N(Cc1cccc3ccccc13)C(=O)[C@H](CC(=O)NCCC(C)C)C2	-1	-7	-10
CC(C)NC(=O)C1(C)CN(S(C)(=O)=O)CC(=O)N1Cc1cccs1 (stereo unspecified)	2	8	-2
C[C@@H]1Cc2[nH][nH]c(=O)c2[C@H](C)O1	5	4	-26
C=C(C)c1nc(Oc2ccccc2)nc(Oc2ccccc2)n1	0	2	4
CC1=CC(=O)C=CC1=Nc1ccc(N(C)C)cc1	11	1	-14
COC(=O)CC1N(S(=O)(=O)c2ccc(C)cc2)c2ccccc2C1(C(=O)OC)C(=O)OC (stereo unspecified)	-1	-1	18
Nc1c(Cl)ncnc1Nc1ccc(C(=O)O)cc1	3	3	6
CCCCCCCCN1C(=O)[C@H](CC(=O)N2CCCC2)C[C@@]2(C(=O)OC)CCCCC=C12	-9	-13	?
Cc1cc(Br)c2c(c1)[C@](O)(c1cn(C)c3ccccc13)C(=O)N2C	0	0	15
c1ccc(CN2CCc3[nH]c4ccccc4c3C2)cc1	-4	3	20
CCNC(=O)C1(C)CCCN(Cc2ccccc2-c2ccccc2)C1 (stereo unspecified)	1	3	-15
COc1ccc(-c2ccc(CN3C(CC(C)C)C(=O)N(Cc4cn(CC5CCCCC5)nn4)CCS3(=O)=O)cc2)cc1 (stereo unspecified)	-12	-18	-14
COc1cc(C2C3=C(COC3=O)Oc3cc4c(cc32)OCO4)cc(OC)c1OC (stereo unspecified)	32	9	-191
COc1cc(CNC(=O)OC2CC3CC2[C@H]2CCCCN2C3=O)cc(OC)c1 (stereo partly specified)	5	6	0
C[C@H]1[C@@H](Cc2cc(Cl)cc(Cl)c2)N(c2ccccc2)c2ccccc2CN1Cc1ccccc1	-7	-22	-22
COC(=O)c1ccc2nc(-c3ccccc3)c(Cc3ccc(C)cc3)n2c1	-5	-13	-2
O=C(Nc1ccccn1)C1CCN(S(=O)(=O)c2ccc3ccccc3c2)CC1	4	-5	3
N#CC(=C1C=C(Br)C(=NO)C=C1Cl)c1ccc(Cl)cc1	-1	-7	-5
CCCCn1nnnc1C(c1cc2ccccc2o1)N1CCN(c2ccncc2)CC1 (stereo unspecified)	2	0	5
CC(C)(C)NC(=O)C1c2ccccc2OCC(=O)N1Cc1ccccn1 (stereo unspecified)	2	4	-10
CN(C)C1CN(Cc2cn(Cc3cccc(C(F)(F)F)c3)nn2)S(=O)(=O)C1 (stereo unspecified)	-1	5	-9
COC(=O)[C@]12CCCCC=C1N(CCC1=CCCCC1)C(=O)[C@H](CC(=O)N1CCN(C(=O)c3ccco3)CC1)C2	2	-4	12
NC(=S)NN=C1CCCCCCCCC1	4	-2	-4
Cn1cc(-c2ccc3c(c2)OCO3)c2ccccc21	-1	1	-10
C/C=C/c1cccc(-c2nc(C(=O)N3CCOCC3)cc3c2[C@@H](CCO)N(C(=O)NC(C)C)C3)c1	-1	4	-1
Cc1cccc(C)c1NC(=O)C1(C)CN(S(C)(=O)=O)CC(=O)N1CCc1ccccc1F (stereo unspecified)	5	12	57*
CCN(CC(=O)Nc1cc(Cl)ccc1C)C(=O)CSCc1ccccc1	1	-1	32
CCCCNC(=O)C(NC(=O)Cc1cc(C(F)(F)F)cc(C(F)(F)F)c1)C(=O)c1ccccc1 (stereo unspecified)	2	1	-17
COc1ccc(C(C(=O)Nc2ccc(F)cc2)N2CCN(C(=O)c3ccco3)CC2)cc1 (stereo unspecified)	0	2	7
O=C(NC1CCCCC1)C1c2ccccc2OCC(=O)N1CCCN1CCOCC1 (stereo unspecified)	7	5	-26
CC(C)(C)C(=O)c1c(N)[nH]c(C(=O)c2ccccc2)c1-c1ccc(Br)cc1	2	-3	5
CCc1c(-c2ccc(Cl)cc2)ncn1Cc1cccc(-c2ccccc2)c1	5	-31	-4
CC(Sc1nnc(NC2CC2)s1)C(=O)Nc1ccc(N2CCOCC2)cc1 (stereo unspecified)	0	4	-4
O=c1[nH][nH]c2c1[C@H](c1ccc(F)cc1)O[C@H](C1CCCCC1)C2	7	7	29
O=C1Nc2ccccc2-n2nnnc2C1N1CCN(c2ccc(C(F)(F)F)cc2[N+](=O)[O-])CC1 (stereo unspecified)	3	-8	7
CCC(C(=O)NC(C)(C)C)n1c(C(c2ccccc2)c2ccccc2)nc2ccccc21 (stereo unspecified)	-10	-5	86*
COc1ccc(Nc2c(CC(C)C)nc3nc(C)cc(C)n23)cc1	1	6	-15
CC1C(O)=C(c2ccccc2)P(=O)(Cc2ccccc2)C1C (stereo unspecified)	8	9	-15
CCCCN1C(=O)C(CC(=O)NC(c2ccccc2)c2ccccc2)CC(C(=O)N2CCCCCC2)=C1C (stereo unspecified)	7	-8	-23
CCOC(=O)c1cc2ccccc2n1C1CCN(CCc2ccccc2)CC1	0	-6	-15
CC12CC3CC1C(C(=O)O2)C3C(=O)O (stereo unspecified)	-5	2	-9
CCOc1ccccc1NC(=O)COC(=O)c1c(CC)noc1C	1	2	7
The results go on.
SMILES	MT1-MMP act inh	MT1-MMP act inh RFP	Env fusion inh
CC1(C)OC(=O)C2=C(C[C@@H](C3CCCC3)O[C@H]2c2ccc(Cl)cc2)O1	2	-6	-8
COc1ccc(C(=Cc2ccccc2[N+](=O)[O-])C(=O)O)cc1	1	7	-46
CCCCNC(=O)C1c2ccccc2OCC(=O)N1Cc1ccccn1 (stereo unspecified)	-3	2	-8
Cc1c(O)cnc2nn(-c3ccccc3)c(=N)n12	-4	5	-13
O=C(NCc1ccncc1)[C@@H]1CCCN1C(=O)[C@@H]1CCCN1C(=O)c1c(F)cccc1F	3	1	-29
COc1cccc(CNC(=O)[C@@H]2CCCN2C(=O)[C@@H]2CCCN2C(=O)OC(C)(C)C)c1	3	6	24
CC(C)C[C@H]1CN(CCCC[C@H]2CNC(=O)C(=O)N2CCc2ccccc2)C(=O)C(=O)N1Cc1ccccc1	-7	1	-31
CCCCNC(=O)C1(C)CCN1C(=O)c1cc(-c2ccccc2)cs1 (stereo unspecified)	2	0	-27
CC(C)(C)CNC(=O)c1cc2c(Br)ccc(Br)c2nc1N	4	-5	-47
COCCCNC(=O)C[C@@H]1C[C@@]2(C(=O)OC)CC(C)(C)CC=C2N(Cc2ccccc2)C1=O	5	3	-6
CC(=O)c1ccc(S(=O)(=O)N(CC(=O)NC2CC2)Cc2ccc(F)cc2)cc1	3	7	-18
CC(C)NC(=O)OCc1c(COC(=O)NC(C)C)c([N+](=O)[O-])n2c1CCC2	3	5	1
CN(C(=O)CSc1nnc(C2CC2)n1C)C1CCCc2ccccc21 (stereo unspecified)	-7	-2	-78
O=C(Cc1ccccc1[N+](=O)[O-])c1ccc2c(c1)OCO2	4	5	-9
Cc1cccc(C)c1NC(=O)C1(C)CN(S(C)(=O)=O)CC(=O)N1CCCN1CCOCC1 (stereo unspecified)	6	11	29
O=C(O)c1ccccc1C(c1ccccc1)c1ccccc1O (stereo unspecified)	-3	0	6
Oc1cc(O)c(CN2CCOCC2)cc1CN1CCOCC1	3	4	-21
O=C(Nc1ccc(F)cc1)C(c1cccc(F)c1)N1CCN(c2ccncc2)CC1 (stereo unspecified)	1	3	-5
O=C(NCc1ccccc1)C(c1ccccc1)n1c(=O)c(-c2ccco2)nc2ccccc21 (stereo unspecified)	-2	14	36
CCCCNc1ncnc2[nH]ncc12	2	-7	1
COC(=O)C[C@@H]1CC[C@H](NC(=O)Nc2ccc(F)cc2)[C@@H](CO)O1	-1	1	8
N#CCC1(O)C(=O)N(Cc2ccccc2)c2ccccc21 (stereo unspecified)	2	0	-41
OC(c1ccccc1)C(Nc1ccccn1)c1ccccc1 (stereo unspecified)	1	5	-5
COc1cc(C=C2C(=O)C=CC2=O)ccc1O	9	5	-190
O=C(CC(C(=O)c1ccccc1)c1ccccc1)c1ccccc1 (stereo unspecified)	-2	-1	17
Cc1cc(C)c2cc(N)c(Cl)nc2n1	1	5	4
C=CCOC(=O)Nc1nc(CCNC(=O)OCc2ccccc2)c(C(=O)O)s1	5	6	-13
O=[N+]([O-])c1ccc2[nH]ccc2c1	6	5	2
CC(=O)N1CCN(C(C(=O)Nc2c(C)cccc2C)c2cccc(F)c2)CC1 (stereo unspecified)	-5	3	7
C/C=C/c1cccc(-c2nc(C(=O)N3CCOCC3)cc3c2[C@H](CCO)N(C(=O)NC(C)C)C3)c1	8	8	7
COC(=O)C[C@@H]1OC[C@H](CO)N1S(=O)(=O)c1ccc(C)cc1	3	6	37
CC1(C(=O)Nc2ccc3c(c2)OCCO3)CSCC(=O)N1C1CC1 (stereo unspecified)	5	1	-3
Cc1nnc(NCC=Cc2ccccc2)s1	5	5	-56
Cc1ccc(S(=O)(=O)N2C(c3cccc(Cl)c3)CC=C(C(=O)O)C2c2cccc(Cl)c2)cc1 (stereo unspecified)	14	-3	3
CC1CC(=Cc2ccc([N+](=O)[O-])cc2)C(=O)O1 (stereo unspecified)	-3	0	6
Nc1sc(-c2ccccc2)cc1C(=O)N1CCN(c2ccccc2)CC1	3	3	-16
COc1cccc(C2c3cc4c(cc3OC(NNC(N)=O)C2C)OCO4)c1O (stereo unspecified)	18	7	-77

Filtered by structure, the compounds so far with fluorine.
SMILES	MT1-MMP act inh	MT1-MMP act inh RFP	Env fusion inh
CC(C)NC(=O)C1C(c2ccc(C(F)(F)F)cc2)=Nc2ccccc2N1C(=O)c1cccc2ccccc12 (stereo unspecified)	-9	-11	-33
O=C(NCc1ccccc1)C(c1ccco1)N1CCN(c2ccccc2F)CC1 (stereo unspecified)	0	2	-4
COC(=O)C[C@@H]1C=C[C@H](NS(=O)(=O)c2cccc(F)c2)[C@@H](CO)O1	2	5	7
CN1C(=O)C(c2cn(C)c3ccccc23)(c2cn(C)c3ccccc23)c2cc(F)ccc21	0	-2	13
CC1(C(=O)NCc2ccccc2)CN(S(C)(=O)=O)CC(=O)N1Cc1cccc(F)c1 (stereo unspecified)	2	9	15
CCCCNC(=O)c1nc(-c2ccc(C(F)(F)F)cc2)oc1-c1ccccc1	0	1	-13
CN(C)C1CN(Cc2cn(Cc3cccc(C(F)(F)F)c3)nn2)S(=O)(=O)C1 (stereo unspecified)	-1	5	-9
Cc1cccc(C)c1NC(=O)C1(C)CN(S(C)(=O)=O)CC(=O)N1CCc1ccccc1F (stereo unspecified)	5	12	57*
CCCCNC(=O)C(NC(=O)Cc1cc(C(F)(F)F)cc(C(F)(F)F)c1)C(=O)c1ccccc1 (stereo unspecified)	2	1	-17
COc1ccc(C(C(=O)Nc2ccc(F)cc2)N2CCN(C(=O)c3ccco3)CC2)cc1 (stereo unspecified)	0	2	7
O=c1[nH][nH]c2c1[C@H](c1ccc(F)cc1)O[C@H](C1CCCCC1)C2	7	7	29
O=C1Nc2ccccc2-n2nnnc2C1N1CCN(c2ccc(C(F)(F)F)cc2[N+](=O)[O-])CC1 (stereo unspecified)	3	-8	7
O=C(NCc1ccncc1)[C@@H]1CCCN1C(=O)[C@@H]1CCCN1C(=O)c1c(F)cccc1F	3	1	-29
CC(=O)c1ccc(S(=O)(=O)N(CC(=O)NC2CC2)Cc2ccc(F)cc2)cc1	3	7	-18
O=C(Nc1ccc(F)cc1)C(c1cccc(F)c1)N1CCN(c2ccncc2)CC1 (stereo unspecified)	1	3	-5
COC(=O)C[C@@H]1CC[C@H](NC(=O)Nc2ccc(F)cc2)[C@@H](CO)O1	-1	1	8
CC(=O)N1CCN(C(C(=O)Nc2c(C)cccc2C)c2cccc(F)c2)CC1 (stereo unspecified)	-5	3	7

Assay outcomes (PubChem)
